Bioassay records deposited in PubChem by several laboratories.
Mtb hypoxia rep – PubChem AID 1159583; 300,000 tested, 0.1% active; fluorescence inhibition, % (test concentration not listed); M. tuberculosis hypoxia-regulated fluorescent reporter, fluorescence;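 active means 35 to 45% if threefold the growth effect, above 45% if 1.5-fold the growth effect; inactive means the rest, general growth blockers included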;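 further: wells of about 50 µL received 100 nL stock; 0% = vehicle wells and 100% = reference inhibitor wells; whole bacteria with a GFP reporter of the hypoxia response; strong numbers were not always called active; many hits fall short of the cut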
Sa RN4220 lethal – growth inhibition of S. aureus RN4220, primary screen, OD600 | AID 1259311, 2017 | 16 h | 330,000 tested, 0.33% active | inhibition, % (test concentration not listed);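 active means z-score of -3 or lower and OD600 up to 0.18 on both plates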;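 further: plate controls were untreated cells for no effect and reference antibiotic for full effect; stock transfer was 100 nL into about 80 µL; one replicate is shown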
BJeLR lethal – MLPCN primary cell-based screen for lethality selective to Ras in HRASV12 cells | inhibition, % (test concentration not listed) | BJeLR (HRASV12) viability, CellTiter-Glo ATP luminescence, 48 h; reference of the scale not given here | AID 1554, 2009 | 300,000 tested, 0.17% active;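 active means replicate mean above 50%; inconclusive means above 50% but judged a plate artefact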;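 further: 50 nL library stock added to about 25 µL; numbers are from one replicate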
ugtP null kill – growth inhibition of ugtP-null S. aureus, primary screen, RN4220 ugtP deletion, OD600. growth inhibition, % (no concentration beside the values). 330,000 tested, 0.54% active. AID 1259309, 2017. 16 h; some inactives read as strong as hits;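 active means z-score under -3 and OD600 up to 0.15 on both plates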;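 further: plate controls were untreated wells for no effect and antibiotic for full effect; wells of about 80 µL received 100 nL stock; the first replicate is given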
PrP 5UTR inh – inhibition of PrP 5' UTR reporter expression | cell-based PrP 5' UTR mRNA reporter, plate reader | inhibition, % (no concentration beside the values) | 340,000 tested, 0.35% active;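 active means every replicate at 50% or more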;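 further: 0 = median of the neutral control wells; tested in H4 reporter cells; numbers are from one replicate; inactives centre near -14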
Bead autofluor – flagged as autofluorescent in microsphere protease counterscreen. compound autofluorescence counterscreen, microsphere flow cytometry; hits give high values. fluorescence intensity (no concentration beside the values). 360,000 tested, 3.1% active;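 active means at least 3 SD above the mean of all compounds, about 16000 in these data; inconclusive means too few beads counted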;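 further: 100 nL of 1 mM stock went into each well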
Mtb hypoxia rep growth – second read-out of Mtb hypoxia rep, no call of its own (marks repeat the call); growth inhibition, %; measured here: M. tuberculosis growth (absorbance);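 0% = vehicle and 100% = reference antibiotic; read after six days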
* hit, by the source's call; ? = inconclusive; . = no result given.

SMILES	Mtb hypoxia rep	Mtb hypoxia rep growth	Sa RN4220 lethal	BJeLR lethal	ugtP null kill	PrP 5UTR inh	Bead autofluor
O=C(NCCCO)/C(=C\c1ccco1)NC(=O)c1ccc(Br)o1	-6	1	3.5	-6	6	-4	2236
COc1ccccc1NS(=O)(=O)c1ccc(NC(=O)c2ccncc2)cc1	-3	-1	5.2	1	3	-16	4647
Cc1cccc(-n2nnnc2SC(C)C(=O)NCCC2=CCCCC2)c1 (stereo unspecified)	4	8	0.2	-3	5	-26	4127
O=C(Cn1c(=O)n(-c2ccc(F)cc2)c(=O)c2sccc21)NC1CCCCC1	2	6	4.3	13	15	-12	4425
CCOC(=O)C1=C(C)NC(=O)NC1c1ccc(OCC(N)=O)cc1 (stereo unspecified)	5	15	-18	-10	-5	3	3285
CN(C)c1ccc(NC(=O)CN2CCN(c3ccc(F)cc3)CC2)cc1	16	2	0.9	-1	10	-29	4000
CCc1ccc(N(C(=O)CCC(=O)Nc2cc(C)on2)C(C(=O)NC2CCCC2)c2ccco2)cc1 (stereo unspecified)	.	.	2.0	-1	3	-8	3916
Cc1cc(=O)oc2cc(OCC(=O)NN=Cc3ccccc3[N+](=O)[O-])ccc12	-9	-7	4.3	.	5	.	.
Cc1ccc(S(=O)(=O)NC2CC3CCC2C3)cc1 (stereo unspecified)	13	1	6.3	1	4	.	6189
CCNC(=O)COC(=O)c1sccc1C	2	9	4.4	.	3	-23	4600
CN(Cc1ccccc1)C(=O)CN1C(=O)NC2(CCCCCCC2)C1=O	12	3	4.4	.	8	-12	.
Cc1ccc(C(=O)NCC(C)NC(=O)c2ccc(C)c(C)c2)cc1C (stereo unspecified)	8	-1	1.9	-10	2	-61	5294
CCCc1nc2nc(C)c(NS(=O)(=O)c3ccc(Cl)cc3)c(=O)n2[nH]1	5	4	2.5	-3	10	-31	3748
O=C1N=C(N2CCOCC2)S/C1=C1\C(=O)N(Cc2ccccc2)c2ccccc21	9	7	4.3	12	-6	-105	16736*
COc1ccc(S(=O)(=O)NC(C)C(=O)NCc2ccccn2)cc1OC (stereo unspecified)	10	10	3.9	-5	5	-17	3690
O=C(c1nc2ccccn2c1CNCCCn1ncc2ccccc21)N1CCCC1	3	3	3.6	6	4	-9	4062
O=C1NC(=O)C(=Cc2ccc(OCC(=O)N3CCOCC3)cc2)C(=O)N1	5	8	2.0	-3	2	-2	2548
COc1cccc(C=Nc2cccc3c(=O)[nH][nH]c(=O)c23)c1O	10	2	2.3	0	5	-13	4687
O=C(COC(=O)/C=C/c1ccccc1)NCc1cccs1	-1	-3	5.9	.	8	-22	?
CN(C)c1ccc(CNS(=O)(=O)c2csc(C(N)=O)c2)cc1	-2	-9	4.2	0	5	-13	4355
COc1cccc(NC(=O)CN(C)CC(=O)Nc2ccc(C)c(S(=O)(=O)N3CCOCC3)c2)c1	3	0	1.7	.	0	-10	?
Cc1cccc(/C=N/n2c(-c3ccco3)n[nH]c2=S)c1	.	.	.	7	.	-10	3687
Fc1cccc(NC(=S)NCc2cccnc2)c1	13	3	2.7	6	5	-20	2533
CCN1CCN(C(=O)C2CCC(CNS(=O)(=O)c3ccccc3)CC2)CC1 (stereo unspecified)	6	0	9.6	-3	11	-29	10387
COc1cccc(N2CC(NS(=O)(=O)c3ccc(Cl)cc3)CC2=O)c1 (stereo unspecified)	4	9	0.6	6	0	-15	5789
N#Cc1ccccc1COc1ccc(/C=C/C(=O)O)cc1	.	.	.	-6	.	49	2229
Cc1cccc(N2C(=O)/C(=C/c3cccnc3)SC2=S)c1	-8	14	2.3	-2	-2	0	3039
COc1ccc(/C(O)=C/C(=O)C(=O)NNC(=O)c2ccccc2)cc1	6	7	4.2	-1	3	-3	3717
Cc1ccc(/C=C/C(=O)O)cc1S(=O)(=O)NCC1CCCO1 (stereo unspecified)	-4	-7	1.6	-3	8	-18	4749
NC(=O)c1c(N=Cc2cccnc2)sc2c1CCCC2	20	8	1.1	.	3	.	.
Cc1cc(C)c(NC(=O)CNC(=O)c2ccccc2SCC(=O)N2CCCC2)c(C)c1	1	2	-5.9	.	5	-14	4107
Cc1cc(Cl)cc(C)c1OCC(=O)N1CCN(c2ncccn2)CC1	2	0	6.3	.	1	-9	8264
CN(CCOC(=O)c1ccc2c(c1)OCO2)C(C)(C)C	6	9	8.6	-7	13	3	3145
O=C(O)c1ccc(S(=O)(=O)c2ccc([N+](=O)[O-])cc2[N+](=O)[O-])cc1	3	3	10.0	13	-4	27	3031
COc1cc(OC)cc(-c2nnc(SCc3c(F)cccc3Cl)o2)c1	-2	6	1.7	-9	-11	-70	7779
COc1cc(N=C2C(=O)N3c4c(cccc42)C(C)=CC3(C)C)cc(OC)c1	6	11	5.5	1	-2	10	2207
Cc1ccc(C(=O)Nc2nc3ccccc3c(=O)s2)cc1	12	-3	-3.7	0	-3	-84	4278
CCOC(=O)c1ccc(CNCc2ccccc2)cc1	5	2	4.6	-2	13	-37	2589
COc1ccc(C2CC(C(F)(F)F)n3nc(C(=O)NCc4cn(C)nc4C)c(Cl)c3N2)cc1 (stereo unspecified)	-4	2	0.8	1	-1	-19	10017
CC(C)C(=O)Nc1ccc(N2CCN(C(=O)c3cccs3)CC2)cc1	-96	-30	0.8	-4	5	-9	3839
CN1CCN(N=Cc2nc(-c3ccc(Cl)cc3)n3ccccc23)CC1	8	3	7.3	.	8	.	.
Cc1ccc(C23CC4CC(CC(C(=O)NC(C)C(N)=O)(C4)C2)C3)cc1 (stereo unspecified)	1	8	1.4	-10	5	-2	5969
O=C(CCN1C(=O)/C(=C/c2ccco2)SC1=S)Nc1ccc(O)cc1C(=O)O	-1	7	4.6	-9	11	.	3425
C=CCn1c(SC(C)C(=O)c2c(N)n(C)c(=O)n(C)c2=O)nnc1-c1ccoc1C (stereo unspecified)	5	12	-0.3	.	0	-19	8861
O=C(CSc1nnc(-c2cccs2)n1-c1ccccc1)N1CCCC1	10	9	4.0	0	4	-6	21472*
Cc1cc(Nc2cccc(Cl)c2)nc(-c2ccccc2O)n1	1	-1	-14	-9	24	-14	3979
CS(=O)(=O)N(CC(=O)NCC1CCCO1)c1ccc(F)c(Cl)c1 (stereo unspecified)	-1	-11	2.6	9	4	-14	2977
C=CCNC(=O)N1CCc2[nH]c3ccc(F)cc3c2C1	13	-2	4.5	1	3	-9	4268
CCOC(=O)C1CCCN(C(=O)CSCc2ccccc2)C1 (stereo unspecified)	.	.	-0.5	-2	10	-33	4100
Cc1ccc(S(=O)(=O)Nc2cccc3cccnc23)c([N+](=O)[O-])c1	.	.	.	10	.	14	4382
O=C(Nc1ccc2c(c1)OCO2)c1noc2c1CCCC2	14	3	9.2	-1	9	-62	4531
CN(C(=O)CC1C(=O)NCCN1Cc1ccc2ccccc2c1)C1CCOCC1 (stereo unspecified)	5	-2	5.8	5	9	-6	4384
CCCn1c(=O)c2sccc2n2c(CCCC(=O)NCC3CCCO3)nnc12 (stereo unspecified)	-2	8	-1.4	-1	3	-3	3615
Cc1cccc(NC(=O)NC2CC(=O)N(c3ccc4c(c3)OCCO4)C2)n1 (stereo unspecified)	10	3	-0.5	-2	-10	-9	3628
Cc1ccc(N2C(=O)CC(SCC(=O)Nc3ccc(S(N)(=O)=O)cc3)C2=O)cc1 (stereo unspecified)	7	9	7.5	-1	7	-35	2314
CC(=NNC(=O)c1ccc(CSc2nncn2C)cc1)c1ccc(C#N)cc1	11	3	4.9	.	11	.	.
O=S(=O)(c1ccc(S(=O)(=O)N2CCCC2)cc1)N1CCCCC1	-8	1	6.7	-4	-2	.	.
COC(CNC(=O)CNC(=S)N(Cc1ccccc1)Cc1cccnc1)OC	-10	2	-1.3	-4	-2	-15	3796
Cc1cc(S(=O)(=O)N2CCCC2)ccc1OCC(=O)NCc1ccccc1	4	6	-1.3	6	3	-14	5326
CCOc1ccc(-n2ccnc2)nn1	8	2	6.3	10	6	-19	5471

Grouped by structure, the compounds so far with an aryl methoxy group
SMILES	Mtb hypoxia rep	Mtb hypoxia rep growth	Sa RN4220 lethal	BJeLR lethal	ugtP null kill	PrP 5UTR inh	Bead autofluor
COc1ccccc1NS(=O)(=O)c1ccc(NC(=O)c2ccncc2)cc1	-3	-1	5.2	1	3	-16	4647
COc1ccc(S(=O)(=O)NC(C)C(=O)NCc2ccccn2)cc1OC (stereo unspecified)	10	10	3.9	-5	5	-17	3690
COc1cccc(C=Nc2cccc3c(=O)[nH][nH]c(=O)c23)c1O	10	2	2.3	0	5	-13	4687
COc1cccc(NC(=O)CN(C)CC(=O)Nc2ccc(C)c(S(=O)(=O)N3CCOCC3)c2)c1	3	0	1.7	.	0	-10	?
COc1cccc(N2CC(NS(=O)(=O)c3ccc(Cl)cc3)CC2=O)c1 (stereo unspecified)	4	9	0.6	6	0	-15	5789
COc1ccc(/C(O)=C/C(=O)C(=O)NNC(=O)c2ccccc2)cc1	6	7	4.2	-1	3	-3	3717
COc1cc(OC)cc(-c2nnc(SCc3c(F)cccc3Cl)o2)c1	-2	6	1.7	-9	-11	-70	7779
COc1cc(N=C2C(=O)N3c4c(cccc42)C(C)=CC3(C)C)cc(OC)c1	6	11	5.5	1	-2	10	2207
COc1ccc(C2CC(C(F)(F)F)n3nc(C(=O)NCc4cn(C)nc4C)c(Cl)c3N2)cc1 (stereo unspecified)	-4	2	0.8	1	-1	-19	10017

Remaining list, next part
SMILES	Mtb hypoxia rep	Mtb hypoxia rep growth	Sa RN4220 lethal	BJeLR lethal	ugtP null kill	PrP 5UTR inh	Bead autofluor
Cc1ccc(SCC(=O)Nc2ccc(-c3nc4ccccc4[nH]3)cc2)cc1	4	-2	2.5	13	5	-69	2377
O=C(/C=C/c1ccccc1)NC(NC(=S)Nc1cccc(Cl)c1)C(Cl)(Cl)Cl (stereo unspecified)	2	-5	50	1	45	79*	?
CCOC(=O)c1cc(CC)sc1NC(=O)CSc1nc2ccccc2c(=O)n1Cc1ccco1	0	4	1.7	-1	15	-19	8797
CC(=O)Nc1ccc(C(=O)CSc2nc3ccc(C)cc3[nH]2)cc1	-2	-3	-4.5	0	-5	-10	9284
O=[N+]([O-])c1ccc(NC2CCN(Cc3ccccc3)CC2)c([N+](=O)[O-])c1	5	1	1.4	4	-3	-36	2773
COc1cccc(CNC(=O)CSc2nc3c(oc4ccccc43)c(=O)n2CC2CCCO2)c1 (stereo unspecified)	3	4	1.7	6	3	-13	5956
CCOC(=O)c1cnc2c(C)cc(C)cc2c1Nc1ccc(S(=O)(=O)Nc2ncccn2)cc1	3	-1	2.8	-1	17	-20	1969
CNC(=S)NNC(=O)c1ccc(N(C)C)cc1	9	9	-0.2	10	3	-27	.
CC(C)CN1C(=S)SC(C)(C)C1n1oc(=O)n(-c2ccccc2)c1=O (stereo unspecified)	6	6	2.4	-6	3	-23	2201
CC(C)CN1C(=O)C(=O)N(CC(=O)N2CCN(c3ccccc3)CC2)C1=O	-3	-1	3.2	-3	10	-17	5226
C(=NN(Cc1ccccc1)c1ccccc1)c1cccnc1	11	-3	-1.2	.	0	.	.
COc1cc(C(=O)NCCC(=O)NC2CCCc3ccccc32)cc(OC)c1OC (stereo unspecified)	9	3	4.4	-5	14	-9	5896
C=CCOc1ccc(/C=C/C(=O)OCC(=O)NC2CCCCCC2)cc1	4	2	3.1	-20	12	-8	4892
